Screens: PubChem, Broad Institute
Tg IFNy HTS: inhibitors of Toxoplasma gondii growth with IFN-gamma; hit rate 3.8% among 69,000; AID 1259416; activity change, negative = inhibition, %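 (about 20 µM by stock and volumes)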; Toxoplasma gondii growth in IFN-gamma-treated host cells; stronger effect = lower value; reference of the scale not given here;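 active = below -70%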;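 note: host cells are HeLa cells infected with Toxoplasma gondii; parasite growth read as luciferase light; one replicate is shown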
Starred values were filed as active, the others as inactive; i = inactive; & = joins results of further samples. These rows are one share of the data. The share of hits here may be higher or lower than overall.

SMILES	Tg IFNy HTS
CCCNC(=O)Nc1ccc2c(c1)OC[C@H](C)N(C(=O)C1CCOCC1)C[C@@H](C)[C@@H](OC)CN(C)C2=O	-1
C[C@@H]1CN([C@@H](C)CO)C(=O)c2cccc(NC(=O)C3CCOCC3)c2O[C@@H]1CN(C)C(=O)Nc1cccc2ccccc12	-5
CCN(C[C@H]1[C@H](c2ccc(-c3cccnc3)cc2)[C@@H](CO)N1C(C)=O)C(C)=O	-1
Cc1cncc(C(=O)NCCc2nnc3n2CCNCC3)c1	15
CN(Cc1ccc2nccnc2c1)Cc1cc2n(n1)CCNC2	-2
CCOc1ccc(NC(=O)N2CCC3(CC2)NC(=O)c2ccc(F)cc2N3C)cc1	47
CS(=O)(=O)N1C[C@H](O)COC[C@H]2O[C@@H](CC(=O)NCc3ccccc3)CC[C@@H]21	-10
Cn1cc(-c2ccc3ccc(-n4ccc(C(=O)NCCO)n4)n3c2)cn1	-2
O=C(NCCc1ccccn1)c1csc(Cc2c(Cl)cccc2Cl)n1	-37
c1ccc(-n2cccc2)c(N2CCCCC2)c1	-40
O=C(Nc1cccc(F)c1)N1CCCCN2[C@H](CO)[C@@H](c3ccc(C#Cc4cccnc4)cc3)[C@@H]2C1	-38
CNC(=O)c1nc(CN2CCCC(Nc3ccc(C(C)C)cc3)C2)no1 (stereo not given)	491
O=C(Cn1c(=O)c(S(=O)(=O)c2ccccc2)cc2ccccc21)NCc1ccco1	26
O=C(CO)N1C[C@H]2[C@H](N3CCOCC3)c3ccccc3[C@@H]2C1	27
COc1ccc(NC(=O)c2nc(Nc3ccc(C)cc3)c3ccccc3n2)c(OC)c1	-112*
CNc1ncc(CN(C)C(=O)c2cccc(Cn3cccn3)c2)cn1	3
CC(C)C(C)NC(=O)c1ncn2c1CN(CC1CC1)S(=O)(=O)c1ccccc1-2 (stereo not given)	-13
C=CCN1CCCC1CNC(=O)c1cc2[nH]nnc2cc1OC (stereo not given)	1
O=C1CCCN1CCCNc1nc(-c2ccncc2)nc2c1CCNC2	-51
CC[C@H](NCC(=O)Nc1ccccc1NC(C)=O)c1ccccc1	3
O=C(C1CCCCC1)N1CCC1c1nc(-c2cccnc2)no1 (stereo not given)	18
O=c1[nH]nc(CCCO)n1CCc1ccccc1F	-3
Cc1ccoc1C(=O)N1CCc2c(CNc3ncccn3)cncc2C1	1
CC(C)(C)c1ccc(C(=O)N2CCN(C(=O)c3ccc(C(C)(C)C)cc3)CC2)cc1	-49
O=C(CN1C(=O)C2C3CCC(C3)C2C1=O)N1CCC(n2nnc(-c3ccccc3)n2)CC1 (stereo not given)	-11
SMILES	Tg IFNy HTS
CC(C)CN1CCC(N2CCN(c3cc(N)nc(N)n3)CC2)CC1	-6
COc1ccc(C2CCCN2C(=O)Cn2cnc3sccc3c2=O)cc1 (stereo not given)	13
O=C(C[C@H]1CC[C@@H]2[C@H](COC[C@H](O)CN2CC2CCOCC2)O1)NCc1ccc(Cl)cc1	27
CC(C)CCN1C[C@H]2[C@H](C(=O)Nc3ccccc3)CCS(=O)(=O)[C@H]2C1	-94*
O=c1oc(-c2cccc(C(F)(F)F)c2)nc2cccc(F)c12	305
CCn1c(C2CCNCC2)nn(CCOc2ccc(C)cc2C)c1=O	-49
COCCN1C2COCC1CN(Cc1nccs1)C2	2
O=C(NC1CCS(=O)(=O)C1)c1cc(-c2ccncc2)c2cnccc2n1 (stereo not given)	16
CCCCCn1c(=O)c(-c2nc3ccccc3c(=O)[nH]2)c(O)c2ccccc21	33
Cc1nn(C)c(C)c1CNC(=O)c1ccc(-c2nc(CN3CCN(c4ccccc4)CC3)c(C)o2)cc1	72
COC(=O)c1c(NCCO)c2cccc(Cl)c2[nH]c1=O	3
O=C(Cn1ncc2ccccc2c1=O)NCc1cc(Cl)c2c(c1)OCCCO2	23
COc1ccc(-c2nc(Cn3nnc(-c4nc(-c5ccc(OC(C)C)cc5)no4)c3C)c(C)o2)cc1	16
Cc1nc(CN2CCN(C)C3(CCN(C(=O)c4ccco4)CC3)C2=O)cs1	27
c1ccc(CCN2CN(CCCN3CCOCC3)c3nc4ccccc4n3C2)cc1	112
N#C[C@@H]1[C@H](c2ccccc2-c2ccccc2F)[C@@H](CO)N1C(=O)c1cccc(F)c1	-33
COc1ccc(-c2nn3c(Cn4nnc5ccccc54)nnc3s2)cc1	7
CN(Cc1nccn1C)c1nccc(CCC(F)(F)F)n1	0
CC(=O)N=c1sc(S(N)(=O)=O)nn1C	4&10&9
Cc1nc(-c2ccc(OCc3ccc(F)cc3)cc2)cs1	438
Cc1nn(C)c(C)c1CCC(=O)NCc1ccccc1-n1ccnc1C	-6
Cc1ccc(NC(=O)Cn2cncn2)c(Br)c1	-12
COc1cccc(S(=O)(=O)N2CCCCN3[C@H](CO)[C@@H](c4ccc(C#CCC(C)C)cc4)[C@H]3C2)c1	-51
CCn1cc(-c2cc(C(=O)NCCc3nc(C(C)(C)C)cs3)no2)cn1	-22
Cc1ccsc1CCNc1nc(-c2cccnc2)nc2c1CNC2	-51
SMILES	Tg IFNy HTS
CCC(c1ccccn1)N(C)C1CCNCC1 (stereo not given)	17
CC(C)[C@H]1COCc2cn(nn2)CCC[C@@H](C)C(=O)N1	56
COc1cc(C(=O)N(C)CCOc2ccccc2OC)c2ccccc2n1	-93*
O=C(C[C@@H]1CC[C@@H]2[C@H](COC[C@@H](O)CN2CCC(F)(F)F)O1)NCc1ccc2c(c1)OCO2	-33
O=C(C1CCC1)N1CCCCN2[C@@H](CO)[C@H](c3ccc(-c4ccncc4)cc3)[C@@H]2C1	7
CC(C)c1nccc(CN2CCN(S(=O)(=O)c3ccccc3)CC2)n1	4
CCOc1ccc(-c2nc(CNS(=O)(=O)c3ccc(F)cc3)c(C)o2)cc1	93
CCOc1ccc(NC(=O)C2CCN(C(C)=O)CC2)cc1	24
Cc1cnc(-n2cnnc2)c(/C=C/c2ccccc2)c1	0
Fc1ccc2c(c1)/C(=N/Nc1ncc(C(F)(F)F)cc1Cl)CCS2	135
COc1ccc(-c2nc(N3CCN(c4ccccc4OC)CC3)c3ccccc3n2)cc1	14
O=C(C[C@H]1CC[C@H]2[C@@H](COC[C@H](O)CN2CCc2ccccc2)O1)NCCCN1CCOCC1	0
CC(=O)NC(C)c1nc2ccccc2[nH]1 (stereo not given)	20
CC(C)c1ccc(S(=O)(=O)N2CCC3(CC2)NCCN=C3NCc2cc(F)cc(F)c2)cc1	-2
C[C@@H]1CCn2nncc2COC[C@H]2CCCN2C1=O	-3
Nc1cc(N)nc(SCC(=O)NCC2CCCO2)n1 (stereo not given)	11
Cc1ccc(F)cc1NC(=O)Cn1ncc2c(N3CCN(c4ccccn4)CC3)ncnc21	-55
CN(Cc1csc(-c2ccccc2)n1)Cc1nccn1C	28
O=C1NC2(CCN(CCO)CC2)CC1c1ccccc1 (stereo not given)	-4
O=C(Cc1cccnc1)N1[C@H](CO)[C@H](c2ccccc2)[C@@H]1CNCC1CCC1	6
CCOc1ncnc2c1CCN(S(=O)(=O)c1cn(C)cn1)CC2	16
CCOC(=O)c1[nH]c(C)c(S(=O)(=O)NCc2nn(-c3ccccc3)nc2C)c1C	73
COc1ccc2c3c([nH]c2c1)[C@H](CO)NCC31CCN(C(=O)C2CCOCC2)CC1	i
O=C(c1ccc(=O)[nH]n1)N1CCc2nnc(CCc3ccccc3)n2CC1	2
CCCCCCCCCCCCCC[C@@H](O)[C@@H](O)[C@@H](N)CO	26

Continued, starting with the last six of the part before.
SMILES	Tg IFNy HTS
O=C(Cc1cccnc1)N1[C@H](CO)[C@H](c2ccccc2)[C@@H]1CNCC1CCC1	6
CCOc1ncnc2c1CCN(S(=O)(=O)c1cn(C)cn1)CC2	16
CCOC(=O)c1[nH]c(C)c(S(=O)(=O)NCc2nn(-c3ccccc3)nc2C)c1C	73
COc1ccc2c3c([nH]c2c1)[C@H](CO)NCC31CCN(C(=O)C2CCOCC2)CC1	i
O=C(c1ccc(=O)[nH]n1)N1CCc2nnc(CCc3ccccc3)n2CC1	2
CCCCCCCCCCCCCC[C@@H](O)[C@@H](O)[C@@H](N)CO	26
CNC(=O)CC1CCN(C2CCCNC2)CC1 (stereo not given)	-7
CCn1c(C2CCCNC2)nn(Cc2cc(=O)n3cc(C)sc3n2)c1=O (stereo not given)	-2
CC1(C)Oc2ccc3ccc(=O)oc3c2C(N2CCCCC2)C1O (stereo not given)	-8
Cc1ccc(C)c(-c2coc(-c3ccc(NC(=O)Nc4ccc(F)cc4)cc3)n2)c1	-17
Cc1ccc(CN2CCC3(CC2)CCN(c2cnn(C)c2)C3=O)cc1	-3
Cc1ccc(C2c3[nH]c4ccccc4c3CCN2C(=O)Cc2cccs2)cc1 (stereo not given)	-125*
Cc1ncc(CN2CCC(c3nn(C)c(=O)n3Cc3ccccc3)CC2)cn1	-1
CO[C@H]1CN(C)C(=O)c2ccc(NC(=O)c3cc(C)on3)cc2OC[C@H](C)NC[C@H]1C	69
O=C(Nc1ccc(N2CCCCC2)cc1)c1ccccc1Cl	199
CNC(=O)c1cc(=O)n(CC(=O)Nc2cccc(C)c2)c2ccccc12	1
CCOC(=O)c1nc(-c2ccc(Br)o2)no1	14
CN(Cc1ccc(-n2cccn2)cc1)C(=O)c1cn(CC2CCCNC2)nn1 (stereo not given)	3
CCN1C(=O)C(Cc2nc3ccccc3c(=O)n2C)c2ccccc21 (stereo not given)	-36
N#C[C@H]1[C@@H](c2ccccc2C2=CCCC2)[C@@H](CO)N1C(=O)c1cccc(F)c1	6
Cc1nc(C)c(CC(=O)N2CCc3[nH]c4ccc(F)cc4c3C2)c(=O)[nH]1	0
O=C1CSc2ccc(C(F)(F)F)cc2N1Cc1ccc(Cl)cc1Cl	-67
CC(C)n1ccnc1CN1CCCC(OCc2cccnc2)C1 (stereo not given)	10
Cc1ccc(NC(=O)c2nc(Nc3ccccc3)c3ccccc3n2)c(C)c1	-41
CCCN(CCC)C(=O)c1cc2cccnc2n(Cc2ccccc2F)c1=O	34
Cc1ccc(C(=O)N2CCN(S(=O)(=O)c3cc4c5c(c3)CCN5C(=O)CC4)CC2)cc1C	-2
C[C@H](CO)N1C[C@H](C)[C@@H](CN(C)S(=O)(=O)c2cn(C)cn2)OCc2ccccc2-c2ccccc2C1=O	-48
CCCCc1nnc(NC(=O)C2CC(=O)N(CCc3c[nH]c4ccc(C)cc34)C2)s1 (stereo not given)	-28
COc1ccccc1NC(=O)C1CN(C(=O)c2cnn(C)c2)Cc2cn(C)nc21 (stereo not given)	11
O=C(Cn1cccnc1=O)N1C[C@@H](c2cccc(F)c2)[C@@H]2NCCCCC[C@H]21	-5
Cc1cccc(-c2nc(Cn3c(=O)c4c(C)cc(C)nc4n(C)c3=O)c(C)o2)c1	7

In the list so far, 2 have bromine.
SMILES	Tg IFNy HTS
Cc1ccc(NC(=O)Cn2cncn2)c(Br)c1	-12
CCOC(=O)c1nc(-c2ccc(Br)o2)no1	14

Individual results from above:
Tg IFNy HTS, O=c1[nH]nc(CCCO)n1CCc1ccccc1F reads -3
Tg IFNy HTS, CCN1C(=O)C(Cc2nc3ccccc3c(=O)n2C)c2ccccc21 (stereo not given) reads -36

Following part
SMILES	Tg IFNy HTS
CC1CCN(C(=O)c2ccc3c(c2)CCC(=O)N3C)CC1	66
Cc1noc(C)c1CN(C)Cc1ccc(C2CCCO2)s1 (stereo not given)	5
CC(=O)N1[C@H](CO)[C@H](c2ccccc2)[C@H]1CN(CC1CCC1)C(=O)CN(C)C	-19
N#C[C@H]1[C@H](c2ccccc2C2=CCCCC2)[C@@H](CO)N1S(=O)(=O)c1ccccc1	-69
Cc1ccc(S(=O)(=O)NC(CC(C)C)c2nnc3n2CCNCC3)cc1 (stereo not given)	27
Cc1c(NC(=O)c2cc3nc(-c4ccccc4)cc(C)n3n2)c(=O)n(-c2ccccc2)n1C	-86*
O=c1oc2c(o1)=C(c1ccccc1)S(=O)(=O)C=2c1ccccc1	47
CN(CC1CCCO1)C(=O)c1coc(COc2ccc3c(c2)OCO3)n1 (stereo not given)	100
Nc1ccc(C(=O)N2CC[C@@H](c3ccc4c(c3)OCO4)[C@H](O)C2)cn1	-7
CCOC(=O)c1cc(C2CC2)nc2c1c(=O)n(Cc1nc(-c3ccccc3Cl)oc1C)c(=O)n2C	5
COc1cccc(CNC(=O)c2nc(Nc3ccccc3)c3ccccc3n2)c1	-54
CCCN(Cc1cccnc1)C(=O)c1cccc(Oc2ncccn2)c1	-4
COCC1CC2(CCN(C(=O)c3ccc4ccccc4n3)CC2)CO1 (stereo not given)	4
c1ccc(-c2nnnn2-c2ccccn2)cc1	43
Cn1cccc1C(=O)N1CCC2(CC1)C(=O)NCC2c1ccccc1 (stereo not given)	-1
C[C@@H]1CN([C@H](C)CO)C(=O)CCCn2nncc2CO[C@@H]1CN(C)C(=O)Nc1cccc(Oc2ccccn2)c1	69
N#C[C@H]1[C@H](c2ccccc2-c2ccccc2)[C@@H](CO)N1C(=O)Cc1ccncc1	-23
O=c1[nH]c(-c2ccccn2)nc2c1CN(Cc1ccccc1)CC2	3
COc1ccc(Nc2nnc(C)c(=O)[nH]2)c(OC)c1	-8
CCSCCNc1nc(-c2cccnc2)nc2c1cnn2C	-32

Four entries from above, reformatted.
CC(=O)N1[C@H](CO)[C@H](c2ccccc2)[C@H]1CN(CC1CCC1)C(=O)CN(C)C
  Tg IFNy HTS: -19
O=c1oc2c(o1)=C(c1ccccc1)S(=O)(=O)C=2c1ccccc1
  Tg IFNy HTS: 47
O=c1[nH]c(-c2ccccn2)nc2c1CN(Cc1ccccc1)CC2
  Tg IFNy HTS: 3
Cn1cccc1C(=O)N1CCC2(CC1)C(=O)NCC2c1ccccc1 (stereo not given)
  Tg IFNy HTS: -1
